MT1-MMP act inh = blockers of MT1-MMP proenzyme processing, primary screen, HT1080 RFP-PRO-GFP cells, GFP/RFP fluorescence; GFP/RFP ratio fluorescence, overnight; percent of plate control window, DMSO zero; GFP/RFP ratio change, % at 20 µM; 360,000 tested, 0.061% active;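 active means GFP/RFP ratio change of at least 30% with cell ATP level not reduced by more than half and red fluorescence within 50% of control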; further: strong numbers were not always called active
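Assay system – RFP-PRO-GFP reporter HT1080 cells · Compound dosing – single dose of 20 µM compound, 1% DMSO final · Incubation – overnight compound exposure at 37 °C · Measure – GFP/RFP fluorescence ratio · Benchmarks – DMSO wells and RFP-L50D-GFP cells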
Env fusion inh = inhibitors of HIV-1 Env-driven cell-cell fusion, primary screen, HeLa-JRFL effector, CEM21 target cells, luciferase; inhibition, % at 12.3 µM; AID 651610, 2012; 360,000 tested, 1.1% active;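 active means mean replicate inhibition score of at least 50 and every replicate individually at or above 50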;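 further: 0% = plate neutral controls and 100% = maraviroc near 300 nM; one replicate is shown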
Rce1 inh = yeast Rce1p protease inhibitors, primary screen, biochemical, fluorescence, cell-free homogeneous; CAAX prenyl protease 2 (Saccharomyces cerevisiae (strain ATCC 204508 / S288c)), Q03530; yeast membranes, quenched prenylated peptide cleavage fluorescence; calls only; 290,000 tested, 0.27% active;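 active means fall in fluorescence gain of 50% or more versus controls, with final raw signal at or below 3038400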;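 further: plate controls were neutral control wells for no effect and wells lacking membranes for full effect; tested at 10 µM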
CSC inhib = cancer stem cell viability inhibitors, primary screen, luminescence. cancer stem cell-like cells viability. inhibition, % at 7.5 µM. 300,000 tested, 1.1% active. AID 2717, 2010;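 active means mean at 75% or more and at least half the replicates too; tested in HMLE shEcad cells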;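 further: 0% = median of negative and 100% = median of positive control wells; the first replicate is given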
PABP FP inh = PABP poly(A) RNA binding inhibitors, primary screen, biochemical, fluorescence polarization, uHTS; AID 2014, 2009; Polyadenylate-binding protein 1 (Homo sapiens), P11940; inhibition, % at 35 µM; 290,000 tested, 1% active;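 active means 50% or more with normal probe brightness, or confirmed in later tests; about a fifth of its hits are not listed in these tables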;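 further: calls also rest on retests at 20 µM and on dose response follow-up; controls were probe without protein and protein plus probe with vehicle; some compounds called inactive have numbers as strong as hits; many hits fall short of the cut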
Target sequence (P11940 whole entry, looked up): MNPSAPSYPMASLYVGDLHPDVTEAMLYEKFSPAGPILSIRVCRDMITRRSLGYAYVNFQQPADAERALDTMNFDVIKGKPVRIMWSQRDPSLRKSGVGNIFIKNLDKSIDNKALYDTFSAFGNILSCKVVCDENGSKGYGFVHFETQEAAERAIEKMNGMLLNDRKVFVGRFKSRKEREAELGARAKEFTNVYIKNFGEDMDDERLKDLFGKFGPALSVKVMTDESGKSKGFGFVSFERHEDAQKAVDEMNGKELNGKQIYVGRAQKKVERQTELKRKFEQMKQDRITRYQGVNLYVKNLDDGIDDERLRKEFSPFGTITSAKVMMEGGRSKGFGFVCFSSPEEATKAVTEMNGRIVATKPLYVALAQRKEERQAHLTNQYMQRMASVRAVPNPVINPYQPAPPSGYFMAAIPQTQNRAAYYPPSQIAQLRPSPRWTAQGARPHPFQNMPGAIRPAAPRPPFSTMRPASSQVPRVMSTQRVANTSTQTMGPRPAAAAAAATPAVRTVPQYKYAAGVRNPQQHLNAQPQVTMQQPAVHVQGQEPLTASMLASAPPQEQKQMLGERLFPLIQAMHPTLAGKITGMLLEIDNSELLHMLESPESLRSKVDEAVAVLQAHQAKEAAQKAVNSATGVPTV
UUG fidelity = modulators of yeast start codon fidelity, primary screen, whole organism, S. cerevisiae, single point, plate reader; S. cerevisiae UUG-firefly luciferase reporter, luminescence/redox ratio; 350,000 tested, 0.13% active; activity score, % at 18.7 µM;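 active means replicate mean at a twofold rise or more, about +100% in these data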;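 further: firefly luciferase made from a UUG start codon reports start codon fidelity; reporter light over untreated wells divided by growth signal over untreated wells; some hits fall short of that in this replicate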
eIF4H inh = human eIF4H binding inhibitors, primary screen, translation initiation inhibitor project, biochemical, uHTS, fluorescence polarization; Eukaryotic translation initiation factor 4H (Homo sapiens), Q15056; eIF4H fluorescence polarization binding assay; inhibition, % at 35 µM; 290,000 tested, 0.94% active; AID 2012, 2009;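 active means 50% or more with normal probe brightness, or confirmed in later tests; about a fifth of its hits are not listed in these tables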;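 further: calls also rest on retests at 20 µM and on dose response follow-up; 0% = protein and probe with vehicle and 100% = probe without protein; strong numbers were not always called active; many hits fall short of the cut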
MT1-MMP act inh RFP = also measured in MT1-MMP act inh; calls as there; RFP signal change, %; measured here: RFP expression control read;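 0 = vehicle wells; hits needed this value within 50% of zero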
An asterisk follows results filed as active; i = inactive; / = not tested or not shown; & = joins results of further samples.

SMILES,MT1-MMP act inh,MT1-MMP act inh RFP,Env fusion inh,Rce1 inh,CSC inhib,PABP FP inh,UUG fidelity,eIF4H inh
CCC(=O)N(C)C[C@@H]1Oc2ncc(Br)cc2C(=O)N([C@H](C)CO)C[C@H]1C,-2,1,-42,/,/,/,1&-12&-12,/
Nc1c(C(=O)Nc2cccc(F)c2)nnn1-c1ccc2c(c1)OCCO2,1,-2,-116,i,-11,-6,-19,-14
CC(Oc1ccc(F)cc1)C(=O)Nc1sc2c(c1C(=O)NCc1cccnc1)CCCC2 (centres undefined),-6,-8,27,i,1,-9,-3,-6
CCCn1c(N2CCN(C(=O)N3CCCCC3)CC2)nc2ccccc21,3,2,-9,i,-14,29,-19,-13
COC(=O)c1c(C)[nH]c(C(=O)/C=C/c2ccccc2Cl)c1C,3,-2,5,i,-6,0,/,9
N#CC1=C(N)Oc2cc(N)ccc2C1c1ccc(Cl)cc1 (centres undefined),-2,-3,-3,i,4,-3,-13,0
O=C(c1ccc(F)cc1)C(CN1CCOCC1)c1ccccc1 (centres undefined),12,-26,/,i,/,21,-7,3
Cc1ccc(S(=O)(=O)N(C)CC(=O)Nc2nnc(CC(C)C)s2)cc1,2,0,/,i,-26,5,9,-5
CCCCCCN=CC1=C(O)C(C(=O)OC)C(C)(C)CC1=O (centres undefined),-1,2,/,i,-9,6,/,7
FC(F)(F)C(Oc1nc(Nc2ccc(Cl)cc2)nc(N2CCOCC2)n1)C(F)(F)F,-9,-17,/,i,-5,4,-8,2
Cc1cc(C(=O)OC2CCOC2=O)c2ccccc2n1 (centres undefined),5,3,/,i,-3,17,19,0
Cc1onc(-c2ccccc2Cl)c1C(=O)N1CCN(C(=O)c2ccco2)CC1,-2,0,/,i,5,-4,7,-2
CCOC(=O)N/N=C(/C)c1ccc(N2C(=O)C3CCCCC3C2=O)cc1 (centres undefined),4,3,-4,i,-1,-2,/,-14
O=C(NCc1ccc(Cl)cc1)Nc1ccc(F)cc1,1,4,-12,i,4,0,4,-3
O=C(CSc1nc2cc([N+](=O)[O-])ccc2n1-c1ccccc1)NCc1ccc2c(c1)OCO2,8,9,22,i,-2,11,/,-5
C/C(=N\Nc1ccc(C(=O)O)cc1)c1ccc(S(=O)(=O)NCc2ccco2)cc1,4,1,-3,i,18,11,/,4
COc1ccc(CN(C(=O)CNC(=O)c2ccco2)C(C(=O)NCC2CCCO2)c2ccccc2)cc1 (centres undefined),-4,-2,-2,i,-1,6,8,-6
O=C(NC1CCCCC1)c1cc(-c2ccccn2)nc2ccccc12,0,-1,4,i,-13,2,/,0
CCOCCCNC(=O)C(NC(=O)c1ccccc1O)c1ccccc1 (centres undefined),0,1,-3,i,-12,-18,/,-1
O=C(CSc1nnc(COc2ccccc2)o1)N1CCCC1,-5,-8,4,i,-2,6,-15,2
O=C(Nc1nnc([C@H]2C[C@H](O)[C@@H](CO)O2)s1)Nc1ccccc1F,0,-4,12,/,/,/,-15,/
CC1CN(CC(O)COc2ccc(C#N)cc2)CCN1CC(O)COc1ccc(C#N)cc1 (centres undefined),1,-8,4,i,-9,4,-15,3
O=C(NCCN1CCOCC1)c1cc(-c2ccc(Cl)cc2Cl)on1,4,-4,-14,i,-5,2,-5,1
C/C(Cc1ccccc1)=N\NC(=O)CNC(=O)/C=C\c1ccccc1,1,-1,-4,i,2,-6,-8,-8
COc1ccc(-c2ccc(SCC(=O)NC3CCCCC3)nn2)cc1,1,-1,-27,i,/,-7,12,-10
CC1CC(=O)Nc2ccccc2N1C(=O)CN1C(=O)C(=O)N(C)C1=O (centres undefined),0,-1,17,/,-21,/,-14,/
O=C(CSc1ncn[nH]1)Nc1nc2c(F)c(F)c(F)cc2s1,5,6,2,/,/,/,-7,/
COc1cc(OC)cc(-c2nn[nH]n2)c1,2,2,10,i,-7,2,-19,1
O=C(CCS(=O)(=O)c1ccc(F)cc1)Nc1nnc(-c2ccco2)o1,3,2,/,i,-13,/,/,/
CSc1ccc(S(=O)(=O)N2CCC(C(=O)N3CCc4ccccc4C3)CC2)cc1,-2,-4,8,i,6,5,-14,-7
CC(=O)Nc1ccc2sc(C)nc2c1,-1,4,-3,i,-18,-11,-8,5
COC(=O)C1=C(C)NC(=O)NC1C1CC=CCC1 (centres undefined),4,4,/,i,/,4,-23,-13
COC(=O)C1=C(C(=O)OC)[C@@H]2N(C)c3ccccc3[C@@]23C[C@@H](CO)N(C(=O)c2cccs2)C3=N1,0,2,-16,i,-8,/,-12,/
CNC(=O)COC(=O)c1cc(-c2ccco2)nc2ccccc12,-1,2,14,i,1,60*,-10,74*
COc1ccc(CC(=O)Nn2c(-c3ccccc3)nc3ccccc3c2=O)cc1,-2,-1,-5,i,2,0,/,-9
CCOc1ccc(-n2cc(C(=O)NCc3ccco3)c3cc(OC)c(OC)cc3c2=O)cc1,5,0,-44,i,9,0,-9,-9
O=S1(=O)CCOC[C@H](CC2CCCCC2)N1Cc1ccccc1Br,0,-4,20,i,25,3,-10,2
Cc1ccc(C)c(Nc2nc3nonc3nc2N2CCOCC2)c1,1,3,/,i,/,-5,-5,2
CCc1nc2ccc(C(=O)Nc3cc(-c4ccccc4)ccc3OC)cn2c1N(C)CCCc1ccccc1,1,-4,19,/,/,/,-16,/
O=C(CN1CCN(C/C=C/c2ccccc2)CC1)NC(=O)NC1CCCCC1,1,-2,12,i,16,-6,/,-5
Cc1cccc(OCC(=O)N2CCN(c3nnc(-c4ccccc4)c4ccccc34)CC2)c1,-5,-20,15,i,-14,-14,/,-12
COc1ccc(-c2noc(CSc3nc4ccccc4c(=O)n3-c3ccc(C)cc3)n2)cc1,-5,-8,5,i,29,-6,-17,-3
COc1ccccc1OCCCC(=O)NC(C)c1ccccc1 (centres undefined),2,6,-13,i,-6,10,/,3
COc1ccccc1N1CCN(C(=O)COc2cccc(C)c2C)CC1,4,3,7,i,-15,-4,-1,-2
CCOC(=O)[C@H]1[C@H]2COc3ccc(C)cc3[C@@H]2N2C(=O)CN(CC3CCCO3)C(=O)[C@@]12C (some centres undefined),-1,-1,9,/,7,/,13,/
O=C(NNC(=O)c1ccc(Cl)cc1Cl)Nc1ccccc1,8,6,/,i,-14,-6,-12,-9
Cn1nc([N+](=O)[O-])nc1Sc1ccc(Cl)cc1,3,4,15,i,-5,17,/,3
CCC1CCCCN1CCCNC(=O)c1ccc(CS(=O)(=O)Cc2ccccc2F)o1 (centres undefined),-1,5,/,i,9,7,-31,6
Cc1ccc(Cn2ccc(=O)c(OCc3c(Cl)cccc3Cl)c2C)cc1,-11,-21,/,i,65,-8,4,-7
COc1ccc(-c2cc3c(=O)n(CC(=O)NCc4ccccc4OC)ncn3n2)cc1,0,4,-16,i,1,5,-16,2
Cc1ccc(C2=CN(Cc3ccccc3)CCC2=O)cc1,4,-4,5,/,/,/,17,/
CN(Cc1ccon1)Cc1cn(C)nc1-c1cccc(Cl)c1,0,2,-3,i,2,3,/,-6
Fc1ccc(CNc2ncnc3c2cnn3-c2ccccc2)cc1,20,-5,/,i,-10,-7,-19,1
CCOc1cc(C(=O)NC2CC(C)(C)NC(C)(C)C2)cc(OCC)c1OCC,2,0,-7,/,-3,-8,-3,0
CCCCCC(=O)Nc1ccc2oc(-c3cccnc3)nc2c1,2,0,-12,i,1,-2,-15,-9
CCc1ccc(N(C2C=CS(=O)(=O)C2)S(=O)(=O)c2ccccc2)cc1 (centres undefined),0,5,-27,i,1,4,/,-5
C=CCN(C(=O)c1ccccn1)C(C(=O)NCc1ccccc1)c1ccccc1F (centres undefined),-3,-2,-8,i,1,4,/,-8
COc1ccc(NC(=S)N(CCN2CCOCC2)Cc2ccccc2F)cc1,4,5,7,i,-7,20,/,-1
COc1ccccc1C(=O)n1nc(-c2cccnc2)nc1N,0,0,6,i,/,-4,-37,1
COc1cc2c(cc1OC)C1=C(C#N)CCC(=NC(=O)c3ccc(Cl)cc3)N1CC2,2,4,/,i,/,-5,-15,5

More records follow:
SMILES,MT1-MMP act inh,MT1-MMP act inh RFP,Env fusion inh,Rce1 inh,CSC inhib,PABP FP inh,UUG fidelity,eIF4H inh
O=C(NCc1ccccc1F)C1CCCN(S(=O)(=O)N2CCOCC2)C1 (centres undefined),-5,0,3,i,-5,/,-11,/
O=C(c1cccs1)N1CCN(C(=O)c2cn(-c3ccccc3)nc2-c2ccccc2)CC1,-2,-4,-30,/,-24,/,0,/
Cc1cc(=O)[nH]c(/N=C(\N)Nc2ccc3c(c2)OCCO3)n1,4,3,10,i,-2,3,-2,-8
COc1ccc(CCNC(=S)NCCc2ccc(OC)c(OC)c2)cc1OC,4&1,-12&-11,5,i,5,5,-27&-18,0
CC(=O)Nc1cc(-c2cccc(F)c2)cn2c(-c3ccc(S(C)(=O)=O)cc3)cnc12,-14,2,-11,/,/,/,-19,/
c1ccc2c(c1)ncn2-c1ncnc2sc3c(c12)CCCC3,-3,6,14,i,-15,2,-11,-11
CCCOCC1CC2(CC(C)(c3csc(N)n3)OC2=O)C(=O)O1 (centres undefined),-1,2,/,i,0,-5,7,2
Cc1ccc(-c2cc(-c3n[nH]c(=S)o3)c3ccccc3n2)cc1,1,-11,6,i,57,0,/,5
O=C(c1cccs1)N(Cc1ccco1)c1nc(-c2ccc(F)cc2)cs1,2,-6,/,/,25,11,15,0
CC(=O)Nc1cncc(-c2cccc(C(=O)NC3CC3)c2)n1,6,4,11,/,/,/,-12,/
O=C(c1ccccc1Br)N1CCN(c2ccccc2)CC1,2,5,-29,i,/,-3,-22,-7
O=C(NCCc1ccco1)c1nn(Cc2ccccc2)c(=O)c2ccccc12,8,10,3,i,-7,10,-8,-1
CCOC(=O)C1(Cc2ccc(OC)cc2)CCN(C(=O)CN2CCN(CC)CC2)CC1,2,4,-11,i,-15,0,-15,-14
CC(C)NC(=O)NS(=O)(=O)c1cnccc1N1CCCCC1,-2,9,/,i,7,-7,8,0
O=c1oc2ccccc2c(N2CCCCC2)c1CN1CCCCC1,-1,-2,/,i,10,8,-13,-6
CS(=O)(=O)N1CCN(C(=O)c2cc(-c3cccs3)nc3ccccc23)CC1,2,5,/,i,-2,-7,2,-9

Reformatted: results already given
Every second line gives: MT1-MMP act inh, MT1-MMP act inh RFP, Env fusion inh, Rce1 inh, CSC inhib, PABP FP inh, UUG fidelity, eIF4H inh
> CC(=O)Nc1ccc2sc(C)nc2c1
    -1, 4, -3, i, -18, -11, -8, 5
> CC(C)NC(=O)NS(=O)(=O)c1cnccc1N1CCCCC1
    -2, 9, /, i, 7, -7, 8, 0
> CS(=O)(=O)N1CCN(C(=O)c2cc(-c3cccs3)nc3ccccc23)CC1
    2, 5, /, i, -2, -7, 2, -9
> COc1ccccc1OCCCC(=O)NC(C)c1ccccc1 (centres undefined)
    2, 6, -13, i, -6, 10, /, 3
> COC(=O)C1=C(C)NC(=O)NC1C1CC=CCC1 (centres undefined)
    4, 4, /, i, /, 4, -23, -13
